Compound activity: PubChem, several laboratories
RN4220 kill: kills Staphylococcus aureus RN4220 | S. aureus RN4220 growth, OD600, 16 h | inhibition, % (test concentration not listed) | hit rate 0.33% among 330,000 | AID 1259311;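 active = z-score of -3 or lower and OD600 up to 0.18 on both plates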;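 also: plate controls were untreated cells for no effect and reference antibiotic for full effect; stock transfer was 100 nL into about 80 µL; one replicate is shown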
PrP 5UTR inh: inhibition of PrP 5' UTR reporter expression | inhibition, % (test concentration not listed) | cell-based PrP 5' UTR mRNA reporter, plate reader | hit rate 0.35% among 340,000 | AID 488862;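 active = every replicate at 50% or more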;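 also: 0 = median of the neutral control wells; tested in H4 reporter cells; numbers are from one replicate; inactives centre near -14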
ugtP null kill: compounds lethal to S. aureus RN4220 ugtP deletion mutant; OD600 growth, 16 h; some inactives read as strong as hits; growth inhibition, % (no concentration beside the values); hit rate 0.54% among 330,000; AID 1259309;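 active = z-score under -3 and OD600 up to 0.15 on both plates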;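 also: plate controls were untreated wells for no effect and antibiotic for full effect; wells of about 80 µL received 100 nL stock; the first replicate is given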
Mtb hypoxia inh: inhibitors of hypoxia-regulated fluorescent reporter in Mycobacterium tuberculosis; fluorescence inhibition, % (test concentration not listed); hit rate 0.1% among 300,000; M. tuberculosis hypoxia-regulated fluorescent reporter, fluorescence;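 active = 35 to 45% if threefold the growth effect, above 45% if 1.5-fold the growth effect; inactive = the rest, general growth blockers included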;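 also: wells of about 50 µL received 100 nL stock; 0% = vehicle wells and 100% = reference inhibitor wells; whole bacteria with a GFP reporter of the hypoxia response; strong numbers were not always called active; many hits fall short of the cut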
Autofluor counter: compound fluorescence in toxin protease inhibitor counterscreen | compound autofluorescence counterscreen, microsphere flow cytometry; stronger effect = higher value | fluorescence intensity (concentration not given with the values) | hit rate 3.1% among 360,000 | AID 624483;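 active = at least 3 SD above the mean of all compounds, about 16000 in these data; inconclusive = too few beads counted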;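 also: 100 nL of 1 mM stock went into each well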
BJeLR lethal: kills HRASV12-expressing BJeLR cells | BJeLR (HRASV12) viability, CellTiter-Glo ATP luminescence, 48 h; reference of the scale not given here | hit rate 0.17% among 300,000 | inhibition, % (concentration not given with the values);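 active = replicate mean above 50%; inconclusive = above 50% but judged a plate artefact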;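 also: 50 nL library stock added to about 25 µL; numbers are from one replicate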
Mtb hypoxia inh growth: second read-out of Mtb hypoxia inh, no call of its own (marks repeat the call); growth inhibition, %; measured here: M. tuberculosis growth (absorbance);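 0% = vehicle and 100% = reference antibiotic; read after six days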
* = called active by the depositor; ? = inconclusive; / = no result given. Rows were taken by chance. About 3.9% of those tested had a hit in this group.

SMILES | RN4220 kill | PrP 5UTR inh | ugtP null kill | Mtb hypoxia inh | Mtb hypoxia inh growth | Autofluor counter | BJeLR lethal
CC(=O)c1c(C)[nH]c(C(=O)OCC(=O)N2CCCC2=O)c1C | 3.9 | 0 | 5 | 5 | 7 | 3723 | /
O=S(=O)(Cc1ccccc1)c1cnc2ccccc2n1 | -13 | 0 | -3 | 17 | 5 | 2854 | -1
O=C(NN=C1CC2CC=CC12)c1ccc(COc2ccccc2)cc1 (centres undefined) | 7.8 | / | 4 | 12 | -2 | / | /
CCCc1cc(=O)[nH]c(SCC(=O)NC2CCCc3ccccc32)n1 (centres undefined) | 6.7 | -32 | 2 | 13 | 14 | 4984 | -14
O=C1CCCC=CCC(CC(=O)N(CCO)Cc2ccccc2)C(=O)NC(Cc2ccccc2)CO1 (centres undefined) | 0.9 | / | -10 | 12 | 13 | / | /
CN(C)c1cccc(C(=O)NN=Cc2ccsc2)c1 | 4.2 | / | 7 | 5 | 19 | / | /
C=CCc1c(C)nc(-c2ccccc2)nc1Nc1ccccc1O | -9.5 | -8 | -1 | 2 | 1 | 2547 | -1
CC(=O)c1ccc(-c2ccccc2)cc1 | 16 | -31 | -4 | 15 | 5 | 2623 | -7
Cc1ccc(Cn2nnnc2CN2CCC(NC(=O)c3ccc(Br)cc3)CC2)cc1 | -1.4 | -24 | -4 | / | / | 5807 | -5
O=S(=O)(c1ccc(F)c(F)c1)N1CCC2(CC1)OCCO2 | 5.0 | 8 | 1 | 6 | -7 | 4120 | -11
C=C(CO)CC1CC(O)[C@]2(C)OC3CC4OC5C[C@]6(C)O[C@]7(C)CCC8OC9C[C@]%10(C)OC%11C(C)=CC(=O)OC%11CC%10OC9C[C@@H](C)C8OC7CC6O[C@]5(C)C/C=C\C4OC3CC2O1 (some centres undefined) | / | -16 | / | / | / | 4018 | -1
COC(=O)C1C[C@@]2(O)C(O)C(O)C(O)CC2N1CC1CC1 (some centres undefined) | 4.1 | / | 4 | 7 | 4 | / | /
Cn1c(=O)[nH]c(=O)c2[nH]c(NCCCN3CCOCC3)nc21 | 0.8 | -3 | 3 | / | / | 4219 | 0
O=C(CCCN1C(=O)c2cccc3cccc(c23)C1=O)N1CCN(c2ccc(F)cc2)CC1 | 12 | -55 | 14 | -1 | 5 | 4431 | 8
COn1c(=O)c(-c2ccc(F)cc2)[n+]([O-])c2ccccc21 | 2.5 | -15 | 1 | 13 | -2 | 3926 | 13
CCOc1ccc(N(C(C)C(=O)NC2CCCCCC2)S(C)(=O)=O)cc1 (centres undefined) | 8.2 | -37 | 4 | 10 | 4 | 2468 | 2
CCOC(=O)C1CCN(CCCSc2ccc(Cl)cc2)CC1 | -1.2 | -24 | 3 | 8 | -5 | / | -9
COc1ccc(NC(=O)c2cc(OC)c(OC)c(OC)c2Br)cc1OC | 0.9 | -15 | -11 | 7 | -4 | 11302 | -11
Cc1ccc2oc(C(=O)N(CCO)Cc3ccccc3)c(C)c2c1 | 4.2 | -16 | 15 | -2 | 7 | 2967 | -10
CC1CCCN(C(=O)CSc2nnc3n(C4CCCC4)c(=O)c4ccccc4n23)C1 (centres undefined) | 1.8 | -18 | -3 | 3 | 5 | 10616 | 5
COc1cc(CNCCc2ccccc2F)ccc1OCC(=O)N1CCCCC1 | 1.5 | -12 | 2 | -7 | 2 | 2181 | 0
COC(=O)Cn1nc(-c2ccccc2)n(-c2ccccc2)c1=S | 0.5 | -3 | 1 | / | / | 3876 | -4
O=C(COC(=O)c1cnccn1)NCc1ccc2c(c1)OCO2 | 2.4 | -6 | 16 | 12 | 10 | 4034 | 3
O=C(CCN1CCN(C/C=C/c2ccccc2)CC1)Nc1ccc(Cl)cc1 | 0.8 | -14 | 2 | 7 | -1 | 2436 | 0
Cc1nnc(SCC(=O)Nc2ccc3c(c2)OCCO3)n1CC1CCCO1 (centres undefined) | 0.0 | 2 | 12 | / | / | 3420 | 10
CCOc1ccc(CCNC(=O)COC(=O)c2nc(Cl)ccc2Cl)cc1OCC | 2.1 | -5 | 2 | -1 | 2 | 6034 | 6
Cn1c(=O)c2c(ncn2CC(=O)NC[C@H]2O[C@@H](n3cnc4c(N)ncnc43)[C@H](O)[C@@H]2O)n(C)c1=O | 2.3 | -7 | 9 | -8 | -3 | 3826 | /
CC1CN(S(=O)(=O)c2cccs2)CC(C)O1 (centres undefined) | -2.3 | -64 | 2 | 3 | 0 | 4093 | /
COc1ccc(NC(=O)Cc2csc(NC(=O)Nc3ccccc3OC)n2)c(OC)c1 | -4.5 | -15 | -3 | -4 | -3 | / | -4
O=C(CC1CCCC1)Nc1ccc2c(c1)CCC2 | 4.4 | -70 | 8 | / | / | 4040 | -3
COc1ccc(C(=O)NC2CCN(Cc3c(F)cccc3Cl)CC2)cc1OC | 5.1 | 5 | 13 | -14 | 0 | 3755 | 3
O=C(CNC(=O)c1ccccc1)N/N=C/c1cc(Br)ccc1O | / | -33 | / | / | / | 9524 | 4
Nc1[nH][nH]c(=O)c1N=Nc1ccc2c(c1)OCO2 | 3.0 | -39 | 4 | 5 | 4 | 4735 | 4
Cc1c(C(=O)N2CCCCC2)c(S(=O)(=O)NCc2ccc(F)cc2)c(C)n1C | 3.7 | -11 | 11 | 14 | 0 | 4717 | -4
COCCCNC(=O)CCn1c(=O)c2ccccc2n(CC(=O)NCCC2=CCCCC2)c1=O | 0.4 | -13 | -8 | -8 | -11 | 5039 | 15
Cc1cc(C)cc(NC(=O)CCNC(=O)N2C[C@H]3C[C@@H](C2)c2cccc(=O)n2C3)c1 | 1.1 | 12 | -5 | / | / | 5886 | -1
COC(=O)C1=C(C)N(Cc2ccccc2)C(=S)NC1c1ccccc1 (centres undefined) | 2.3 | / | 3 | 1 | 6 | / | /
CCCCCCCN1C(Nc2ccccc2)=NC[C@@H]1Cc1ccccc1 | / | -31 | / | / | / | 3954 | -1
CCOC(=O)N1CCc2c(sc3c2c(=O)n(Cc2ccccc2)c(=O)n3Cc2ccccc2F)C1 | -6.1 | -14 | 14 | -5 | 1 | 6137 | 6
N=C(c1ccc([N+](=O)[O-])cc1)N1CCCCCC1 | -1.8 | 0 | 7 | 1 | 2 | 4080 | -3
CCC(C(=O)Nc1sc(C(N)=O)c(C)c1C(=O)OC)c1ccccc1 (centres undefined) | 9.6 | 0 | 8 | 15 | 12 | 4462 | /
O=C(CSc1nnc(-c2ccc3c(c2)OCO3)o1)Nc1c(F)cccc1F | 1.3 | -24 | 0 | 0 | 1 | / | /
Cc1cc(C)n2nc(SCC(=O)N3CCCC3)nc2n1 | 0.6 | -2 | -1 | 2 | 9 | 3743 | /
COc1cc(NC(=O)CN2C(=O)NC(c3ccccc3)(c3ccccc3)C2=O)cc(OC)c1 | / | -35 | / | / | / | 5395 | -11
CC(=O)N1CCN(C(=O)c2ccc(Cl)c(S(=O)(=O)N3CCCCCC3)c2)CC1 | 6.0 | -12 | -3 | -3 | 5 | 4131 | /
CC(CN1CCOCC1)c1ccccc1 (centres undefined) | 3.2 | -10 | -3 | 4 | -2 | 10571 | 8
CCC(C)N(C(=O)COC(=O)c1ccccc1SCC(=O)N1CCCC1)C1CCS(=O)(=O)C1 (centres undefined) | 0.9 | -17 | 9 | 1 | -13 | 4263 | -9
CC(C)CNC(=O)COC(=O)CNC(=O)c1cc(Cl)cc([N+](=O)[O-])c1 | 8.3 | -20 | 7 | 7 | 6 | 10765 | -25
COc1ccc(NC(C)=O)cc1S(=O)(=O)Nc1ccc(S(=O)(=O)N2CCCCC2)cc1 | 3.2 | -11 | 3 | 2 | 5 | 3928 | /
COc1ccc(CCn2c(-c3ccco3)nc3ccccc3c2=O)cc1OC | 8.1 | -13 | -11 | 5 | 5 | 3045 | 2
The listing continues:
SMILES | RN4220 kill | PrP 5UTR inh | ugtP null kill | Mtb hypoxia inh | Mtb hypoxia inh growth | Autofluor counter | BJeLR lethal
O=c1c2ccccc2[nH]c(=S)n1CCCN1CCN(c2ccccc2F)CC1 | 1.9 | -6 | -3 | -10 | 2 | 4067 | 14
O=C(Cc1ccc(-n2c(=O)[nH]c3ccsc3c2=O)cc1)NCc1cccnc1 | 0.7 | -6 | 9 | 10 | 10 | 2452 | -24
COc1ccc(CC(=O)N2CCN(C(=O)c3ccco3)CC2)cc1 | 5.9 | -24 | 13 | 10 | 8 | 6936 | 5
O=C(OCC(=O)N1CCN(S(=O)(=O)c2ccccc2)CC1)C1CCC1 | 7.6 | -3 | 2 | 8 | 13 | ? | /
C#CCOCCOCCOCCNc1nc(N2CCN(C(=O)CCCCCCCCCCNC(=O)C(CCCCN)n3cc(C)nn3)CC2)nc(N2CCN(C(=O)CCCCCCCCCCNC(=O)C(C(C)O)n3cc(C)nn3)CC2)n1 (centres undefined) | 11 | / | 9 | 4 | 12 | / | /
COc1cccc(NC(=O)COC(=O)/C=C/c2ccco2)c1 | 7.1 | / | 6 | 15 | 5 | / | /
COc1cccc(NC(=O)Nc2cc(C(=O)O)ccc2C)c1 | -3.8 | 1 | -5 | -13 | -1 | 2502 | 7
CCC(C)(C)NC(=O)C(C)OC(=O)c1nsc(Cl)c1Cl (centres undefined) | 1.1 | -22 | 5 | -2 | 1 | 3106 | -19
Cc1ccc(OCC(=O)N/N=C/c2cc([N+](=O)[O-])ccc2N2CCCCC2)cc1 | / | -12 | / | / | / | 7648 | -9
Cc1nc(CS(=O)(=O)c2ccccn2)sc1C(=O)NNC(=O)c1ccccc1 | 6.5 | -18 | -3 | -7 | 4 | 4839 | -4

Sorted by heavy-atom count (lowest first): part of the list above
SMILES | RN4220 kill | PrP 5UTR inh | ugtP null kill | Mtb hypoxia inh | Mtb hypoxia inh growth | Autofluor counter | BJeLR lethal
CC(CN1CCOCC1)c1ccccc1 (centres undefined) | 3.2 | -10 | -3 | 4 | -2 | 10571 | 8
CCC(C)(C)NC(=O)C(C)OC(=O)c1nsc(Cl)c1Cl (centres undefined) | 1.1 | -22 | 5 | -2 | 1 | 3106 | -19
COc1cccc(NC(=O)COC(=O)/C=C/c2ccco2)c1 | 7.1 | / | 6 | 15 | 5 | / | /
COc1ccc(CC(=O)N2CCN(C(=O)c3ccco3)CC2)cc1 | 5.9 | -24 | 13 | 10 | 8 | 6936 | 5
CC(C)CNC(=O)COC(=O)CNC(=O)c1cc(Cl)cc([N+](=O)[O-])c1 | 8.3 | -20 | 7 | 7 | 6 | 10765 | -25
O=C(Cc1ccc(-n2c(=O)[nH]c3ccsc3c2=O)cc1)NCc1cccnc1 | 0.7 | -6 | 9 | 10 | 10 | 2452 | -24
Cc1ccc(OCC(=O)N/N=C/c2cc([N+](=O)[O-])ccc2N2CCCCC2)cc1 | / | -12 | / | / | / | 7648 | -9
COc1ccc(NC(C)=O)cc1S(=O)(=O)Nc1ccc(S(=O)(=O)N2CCCCC2)cc1 | 3.2 | -11 | 3 | 2 | 5 | 3928 | /
CCC(C)N(C(=O)COC(=O)c1ccccc1SCC(=O)N1CCCC1)C1CCS(=O)(=O)C1 (centres undefined) | 0.9 | -17 | 9 | 1 | -13 | 4263 | -9
C#CCOCCOCCOCCNc1nc(N2CCN(C(=O)CCCCCCCCCCNC(=O)C(CCCCN)n3cc(C)nn3)CC2)nc(N2CCN(C(=O)CCCCCCCCCCNC(=O)C(C(C)O)n3cc(C)nn3)CC2)n1 (centres undefined) | 11 | / | 9 | 4 | 12 | / | /

New compounds follow:
SMILES | RN4220 kill | PrP 5UTR inh | ugtP null kill | Mtb hypoxia inh | Mtb hypoxia inh growth | Autofluor counter | BJeLR lethal
O=C(CCl)Nc1nccs1 | / | -8 | / | / | / | 4722 | 8
CCOc1ccccc1Cn1c(=O)oc2ccc(C)cc21 | 2.5 | -17 | 7 | / | / | 3769 | /
CN(C)c1ccc(C(CNC(=O)c2ccccc2)c2c[nH]c3ccccc23)cc1 (centres undefined) | 4.2 | -15 | 3 | 1 | 1 | 2197 | 5
COc1ccc(-c2nnc(SCC(=O)NC(C)c3ccccc3)o2)cc1 (centres undefined) | 0.4 | -5 | 7 | / | / | 6110 | -4
CC1(C)CC(=O)C(Sc2ccc(Br)cc2)=C(O)C1 | 7.6 | -13 | 9 | -5 | -2 | 4017 | -5
